AF4-AF9 inh: inhibitors of AF4 peptide binding to AF9, primary screen, biochemical, AlphaScreen, biotin-AF4 peptide, FLAG-AF9, single point; inhibition, % at 10 µM; Protein AF-9 (Homo sapiens), P42568; 350,000 compounds, 0.47% hits;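 active means every replicate reaching a set inhibition limit, whatever the replicate mean, cut at about 25% in these data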;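 further: 0% = plate neutral control median and 100% = total signal loss; the record names both 10 and 1 µM as test concentration; the first replicate is given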
Target sequence (P42568 whole entry, looked up): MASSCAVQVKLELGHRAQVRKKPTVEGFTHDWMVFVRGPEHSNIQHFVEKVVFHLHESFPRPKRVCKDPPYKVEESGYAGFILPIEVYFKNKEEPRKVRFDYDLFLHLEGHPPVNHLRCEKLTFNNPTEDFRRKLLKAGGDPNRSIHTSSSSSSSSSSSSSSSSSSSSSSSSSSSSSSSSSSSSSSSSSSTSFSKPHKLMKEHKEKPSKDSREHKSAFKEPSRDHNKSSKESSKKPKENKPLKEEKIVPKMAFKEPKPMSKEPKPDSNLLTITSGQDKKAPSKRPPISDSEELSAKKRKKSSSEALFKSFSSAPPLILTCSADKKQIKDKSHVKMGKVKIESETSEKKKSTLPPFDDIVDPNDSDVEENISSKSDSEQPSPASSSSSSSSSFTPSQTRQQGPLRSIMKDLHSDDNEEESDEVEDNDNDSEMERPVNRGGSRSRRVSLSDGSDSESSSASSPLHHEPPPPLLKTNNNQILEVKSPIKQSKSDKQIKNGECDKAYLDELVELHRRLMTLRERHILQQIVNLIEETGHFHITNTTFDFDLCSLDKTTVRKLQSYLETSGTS
rRNA inh HTS: reduced GFP signal of wild-type E. coli, primary screen, bacterial rRNA inhibitor project, GFP/RFP fluorescence, OD600, single point. GFP signal change (wild-type ribosome), % (concentration not given with the values). AID 720706, 2013. E. coli WT GFP vs humanized-ribosome RFP mutants, 24 h; hits give low values; DMSO median 0, no signal -100. 350,000 compounds, 1.6% hits;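 active means significant combined selectivity score with lowered wild-type GFP, culture density cut under 30%, mutant RFP and density less affected; inactive means any of these conditions unmet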; further: one replicate is shown; some compounds called inactive have numbers as strong as hits
rRNA inh HTS OD600: also measured in rRNA inh HTS; calls as there; OD600 change, %; measured here: OD600 growth;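 optical density of the mix in the first replicate; 0 = DMSO median and -100 = no signal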
rRNA inh HTS RFP: also measured in rRNA inh HTS; calls as there; RFP signal change, %; measured here: RFP humanized mutant strains;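 first replicate; 0 = DMSO median and -100 = no signal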
Active calls of the source: *; & = joins results of further samples. A portion of the library; count on the stated rates, not on these rows.

SMILES	AF4-AF9 inh	rRNA inh HTS	rRNA inh HTS OD600	rRNA inh HTS RFP
CC(=O)N1C[C@H]2CON(C)[C@H]2C[C@H]1c1cccc(-c2ccccc2C)c1	-0.2	1	-17	0.6
O=C(c1cccnc1)N1CC[C@@H]2[C@@H](CO)Nc3ccc(-c4cccc(F)c4)cc3[C@@H]21	-1.2	-5	-13	-1.2
O=C(/C=C/[C@H]1O[C@@H](n2cnc3c(NC(=O)c4ccccc4)ncnc32)[C@H](O)[C@@H]1O)NCC1CCCO1 (some centres not stated)	-1.0	5	2	-0.8
CO[C@H]1CN(C)C(=O)c2cc(NC(=O)C3CCOCC3)ccc2OC[C@H](C)N(C(C)=O)C[C@H]1C	-0.9	1	-4	-3.0
O=C(Nc1ccccc1C(=O)NCC1CC1)c1cccs1	-0.2	3	13	0.9
NC(=Nc1c([N+](=O)[O-])cnc2ccccc12)N1CCOCC1	-2.1	-3	9	-2.0
C[C@H]1CN([C@@H](C)CO)C(=O)c2cccc(NC(=O)C3CC3)c2O[C@H]1CN(C)S(=O)(=O)c1cn(C)cn1	-1.2	3	1	-1.8
COc1ccc2c3c(n(C)c2c1)[C@H](CO)N(C(C)=O)CC31CCN(Cc2cccnc2)CC1	-5.0	1	-3	-1.2
Cc1ccccc1S(=O)(=O)N(C)C[C@@H]1OCc2ccccc2-c2ccccc2C(=O)N([C@H](C)CO)C[C@@H]1C	2.6	-7	-18	1.7
C[C@@H]1CN([C@H](C)CO)S(=O)(=O)c2ccc(C3=CCCC3)cc2O[C@H]1CN(C)Cc1ccccc1	4.4	0	-9	5.5
O=C(C[C@@H]1CC[C@H]2[C@@H](COC[C@@H](O)CN2C(=O)c2cnccn2)O1)NCc1ccc(Oc2ccccc2)cc1	0.2	0	8	-0.5
O=c1cc(CN2CCN(c3ccccc3F)CC2)c2ccccc2o1	-2.9	-2	4	5.8
CCCN(C)C[C@H]1OCCCC[C@@H](C)Oc2ccc(NC(=O)c3ccncc3)cc2C(=O)N([C@H](C)CO)C[C@@H]1C	-1.4	0	2	-1.9
O=C(c1ccncc1)N1C[C@@H]2[C@H](c3ccccc31)[C@@H](CO)N2Cc1ccc(F)cc1	1.4	0	-1	-0.2
OC[C@@H]1[C@H](c2ccccc2)C2(CN(Cc3ccccc3)C2)N1Cc1ccncc1	4.7	0	2	-0.5

Seven entries drawn at random from those above:
SMILES	AF4-AF9 inh	rRNA inh HTS	rRNA inh HTS OD600	rRNA inh HTS RFP
CO[C@H]1CN(C)C(=O)c2cc(NC(=O)C3CCOCC3)ccc2OC[C@H](C)N(C(C)=O)C[C@H]1C	-0.9	1	-4	-3.0
COc1ccc2c3c(n(C)c2c1)[C@H](CO)N(C(C)=O)CC31CCN(Cc2cccnc2)CC1	-5.0	1	-3	-1.2
O=C(Nc1ccccc1C(=O)NCC1CC1)c1cccs1	-0.2	3	13	0.9
O=C(/C=C/[C@H]1O[C@@H](n2cnc3c(NC(=O)c4ccccc4)ncnc32)[C@H](O)[C@@H]1O)NCC1CCCO1 (some centres not stated)	-1.0	5	2	-0.8
O=C(c1cccnc1)N1CC[C@@H]2[C@@H](CO)Nc3ccc(-c4cccc(F)c4)cc3[C@@H]21	-1.2	-5	-13	-1.2
Cc1ccccc1S(=O)(=O)N(C)C[C@@H]1OCc2ccccc2-c2ccccc2C(=O)N([C@H](C)CO)C[C@@H]1C	2.6	-7	-18	1.7
OC[C@@H]1[C@H](c2ccccc2)C2(CN(Cc3ccccc3)C2)N1Cc1ccncc1	4.7	0	2	-0.5

(further entries)
SMILES	AF4-AF9 inh	rRNA inh HTS	rRNA inh HTS OD600	rRNA inh HTS RFP
O=C(C[C@H]1C=C[C@@H](NC(=O)C2CC2)[C@H](CO)O1)Nc1ccccc1	-0.4	0	6	-2.0
CO[C@H]1CN(C)C(=O)c2cc(NC(=O)Nc3ccccc3F)ccc2OC[C@H](C)N(CC2CC2)C[C@H]1C	0.1	-1	0	2.3
C[C@H]1CN([C@@H](C)CO)C(=O)c2cc(NC(=O)Nc3ccc(C(F)(F)F)cc3)ccc2O[C@H]1CN(C)Cc1ccc(Oc2ccccc2)cc1	-0.4	1	0	0.2
O=C(C[C@H]1C[C@H]2c3cc(NC(=O)Nc4ccccc4F)ccc3O[C@H]2[C@H](CO)O1)NCc1ccc2c(c1)OCO2	-4.3	0	-4	-5.1
C[C@H]1CN([C@@H](C)CO)S(=O)(=O)c2ccc(C3=CCCC3)cc2O[C@@H]1CN(C)C(=O)c1ccncc1	0.4	0	8	0.6
COCC(=O)N1[C@H](CO)[C@@H](c2ccccc2)C12CN(C(=O)NC1CCCC1)C2	-3.6	-2	6	-0.4
C[C@@H]1CN([C@@H](C)CO)C(=O)c2cc(NC(=O)Nc3ccccc3)ccc2O[C@@H]1CN(C)S(=O)(=O)c1cn(C)cn1	-0.6	3	16	-1.4
O=C(C1CC1)N1CC(=O)N2[C@H](C1)[C@@H](c1ccc(C#CC3CCCC3)cc1)[C@@H]2CO	2.3	-3	-49	28
O=C1Nc2ccccc2N=C(c2ccc3c(c2)OCO3)C1N(C(=O)c1ccc2ccccc2c1)C1CC1 (configuration not stated)	2.4	-3	12	4.7
COC(=O)[C@]12C[C@H](CC(=O)NCc3ccc(C)o3)C(=O)N(Cc3ccccc3)C1=C[C@H](C(C)C)O[C@@H]2C1CC1	4.4	10	-1	0.8
C[C@H](CO)N1C[C@H](C)[C@H](CN(C)Cc2ccccc2)Oc2ccc(NC(=O)Cc3cn(C)c4ccccc34)cc2C1=O	5.1	3	1	-1.1
C[C@@H]1CCCCO[C@H](CN(C)C(=O)NC2CCCCC2)[C@@H](C)CN([C@@H](C)CO)C(=O)c2cc(N(C)C)ccc2O1	-3.9	-3	0	-0.5
CCS(=O)(=O)N1CCC2(CC1)CN(S(=O)(=O)c1cccc(OC)c1)[C@H](CO)c1[nH]c3cc(OC)ccc3c12	-0.9	-4	-9	5.8
COc1ccc2c3c(n(C)c2c1)[C@@H](CO)N(S(C)(=O)=O)CC31CCN(Cc2nccs2)CC1	3.2	-7	1	-1.6
COCC(=O)N1C[C@H](C)[C@H](OC)CN(C)C(=O)c2ccc(NS(C)(=O)=O)cc2OC[C@@H]1C	-2.9	2	8	-2.8
COCCNC(=O)C1(C)CCN(C(=O)C2(c3ccc(Cl)cc3)CCCC2)C1 (configuration not stated)	-0.1	0	-4	-5.4
O=C(C[C@@H]1CC[C@@H]2NC[C@@H](O)COC[C@H]2O1)Nc1ccccc1	-2.9	7	9	-4.0
CN1c2ccc(Br)cc2[C@H]2[C@H](CCN2C(=O)C2CC2)[C@@H]1CO	-6.1	4	-1	-6.1
COc1ccc(NC(=O)Nc2ccc3c(c2)C(=O)N([C@H](C)CO)C[C@@H](C)[C@H](CN(C)S(=O)(=O)c2ccc(C)cc2)O3)cc1	3.5	-4	2	1.5
C[C@@H]1CCCCO[C@@H](CN(C)C(=O)Nc2ccc(F)cc2)[C@H](C)CN([C@@H](C)CO)C(=O)c2cc(NS(=O)(=O)c3cccs3)ccc2O1	-2.9	-12	-13	-2.4
C[C@H](CO)N1C[C@H](C)[C@H](CN(C)CC2CCCCC2)Oc2c(NC(=O)Nc3ccccc3)cccc2C1=O	3.2	0	-14	-0.1
COc1cccc(C(O)c2nc(-c3cnn(C)c3)cs2)c1 (configuration not stated)	-5.1	6	12	1.9
COc1ccc(-c2ccc(C3[C@H]4CNC[C@@H]3N4S(=O)(=O)c3cccc(OC)c3)cc2)cc1 (some centres not stated)	-4.6&-6.1	-2&-56	-13&-80	3.1&-5.9
COC(=O)C[C@H]1CC[C@H](NC(=O)c2ccccc2)[C@@H](CO)O1	-2.2	1	0	0.2
C[C@@H]1CCCCO[C@H](CN(C)S(=O)(=O)c2cn(C)cn2)[C@@H](C)CN([C@H](C)CO)C(=O)c2cc(NS(C)(=O)=O)ccc2O1	-10	-1	2	-4.5
CCCS(=O)(=O)NC(=O)C1(C)CCN(C(=O)c2ccc(C#N)cc2)C1 (configuration not stated)	-7.9	6	8	2.6
Cc1ccc(S(=O)(=O)NC(=O)C2(C)CCN2C(=O)C2(c3ccc(Cl)cc3)CC2)nc1 (configuration not stated)	-4.7	-2	6	-4.5
O=C(C[C@@H]1C=C[C@@H](NC(=O)Nc2ccccc2F)[C@@H](CO)O1)NCc1ccc(Cl)cc1	0.2	-1	1	2.5
CO[C@H]1CN(C)C(=O)c2ccc(NS(C)(=O)=O)cc2OC[C@@H](C)N(CCC(F)(F)F)C[C@@H]1C	-1.6	-2	-12	-0.3
CC(C)NC(=O)Nc1ccc2c(c1)CC(=O)N([C@@H](C)CO)C[C@@H](C)[C@@H](CN(C)Cc1ccc(Cl)c(Cl)c1)O2	-2.4	-6	-9	0.3
CN(C)C(=O)c1cccc(-c2ccc(C3[C@@H]4CN(Cc5cncnc5)C[C@H]3N4)cc2)c1 (some centres not stated)	5.3&4.9	-4&5	16&13	-2.8&-1.9
C[C@@H]1CN([C@@H](C)CO)S(=O)(=O)c2ccc(-c3ccccc3F)cc2O[C@@H]1CN(C)Cc1cccnc1	7.2	-43	-67	21
O=c1[nH][nH]c2c1[C@@H](c1ccc(F)cc1)O[C@H](CCc1ccccc1)C2	-1.4	-12	-17	-5.6
CC1(C(=O)NS(=O)(=O)c2ccc(F)cc2F)CCN1C(=O)c1ccco1 (configuration not stated)	2.8	8	23	-0.5
O=C(NCC[C@@H]1CC[C@H](NS(=O)(=O)Cc2ccccc2)[C@H](CO)O1)C1CCCC1	0.6	3	9	-0.2
C/C=C/c1ccc2c(c1)O[C@H](CN(C)C(=O)c1cccnc1)[C@@H](C)CN([C@@H](C)CO)S2(=O)=O	-1.7	-6	3	4.2
COc1ccc(NC(=O)N(C)C[C@H]2Oc3ccc(NC(=O)Cn4cnnn4)cc3CC(=O)N([C@@H](C)CO)C[C@@H]2C)cc1	-2.1	0	4	-0.4
C[C@@H](NC(=O)C[C@H]1C[C@@H]2c3cc(NC(=O)CC4CC4)ccc3O[C@@H]2[C@H](CO)O1)c1ccccc1	-1.5	-1	1	-1.7
COc1cccc(NC(=O)N[C@H]2C=C[C@H](CC(=O)NCc3ccncn3)O[C@@H]2CO)c1	-4.9	-2	-2	-1.2
O=C(C1CC1)N1CC(=O)N2[C@H](CO)[C@@H](c3ccc(-c4ccccc4F)cc3)[C@@H]2C1	-2.2	2	-5	2.2
CCCc1cn(CC[C@H]2CC[C@@H](NC(=O)C3CC3)[C@@H](CO)O2)nn1	1.0	2	-1	-1.5
CO[C@H]1CN(C)C(=O)c2cc(NC(=O)Cc3ccccc3)ccc2OC[C@H](C)N(C(=O)c2ccccc2F)C[C@H]1C	-0.9	-3	-2	-0.7
C[C@@H]1CCCCO[C@@H](CN(C)C(=O)CCCN(C)C)[C@@H](C)CN([C@H](C)CO)C(=O)c2cc(NC(=O)Nc3ccccc3)ccc2O1	-1.3	3	4	-1.3
COc1ccc(S(=O)(=O)N(C)C[C@@H]2OCCCC[C@@H](C)Oc3ccc(N(C)C)cc3C(=O)N([C@@H](C)CO)C[C@H]2C)cc1	4.3	-2	0	-1.8
C[C@H](CO)N1C[C@H](C)[C@@H](CN(C)S(=O)(=O)c2cccs2)Oc2ccc(N(C)C)cc2C1=O	5.1	-1	0	-1.8
NCCCCc1ccc2ccc3cccc4ccc1c2c34	23	-19*	7.1*	7.9*
C[C@H](NC(=O)C[C@@H]1C=C[C@@H](NC(=O)C2CC2)[C@H](CO)O1)c1ccccc1	0.5	1	-4	0.5
C[C@@H]1CN([C@H](C)CO)C(=O)c2ccccc2-c2ccccc2CO[C@H]1CN(C)C(=O)CCC(F)(F)F	-3.0	1	0	0.3
C[C@@H]1CN([C@H](C)CO)C(=O)c2cccc(NC(=O)c3nc4ccccc4s3)c2O[C@@H]1CN(C)Cc1ccc(C(=O)O)cc1	0.6	-4	-7	-1.4
CN(C)C(=O)c1ccc(-c2ccc([C@@H]3[C@@H](CO)N4C(=O)CN(C(=O)C5CCCC5)C[C@@H]34)cc2)cc1	-3.6	2	8	-0.5
C[C@H]1CN([C@@H](C)CO)C(=O)c2cccc(NC(=O)Nc3cccc4ccccc34)c2O[C@@H]1CN(C)C(=O)Nc1ccc(F)cc1	6.4	-1	1	-0.4
CCOc1ccc(-c2cc(C(=O)NCCOC)[nH]n2)c(C)c1	-0.7	7	4	-0.9
CNC[C@@H]1Oc2cc(C#CC(C)(C)O)ccc2S(=O)(=O)N([C@H](C)CO)C[C@H]1C	-1.0	8	13	-0.7
Cc1c(C2(O)CCCCC2)[nH]c2ccccc12	1.8	5	6	1.4
CC(C)CC#Cc1cnc2c(c1)C(=O)N([C@H](C)CO)C[C@H](C)[C@@H](CN(C)C(=O)CC1CC1)O2	0.2	2	3	2.7
CC1(C(=O)NCc2ccccc2)CCC(=O)N1CCCn1ccnc1 (configuration not stated)	-8.1	0	6	2.2
Cc1cc2c(cc1C)N[C@]1(C[C@H]3CCCC(=O)N4CC[C@@H](C1)[C@@H]34)C(=NC(C)(C)CC(C)(C)C)N2	50*	0	-6	3.7
